# Source: PubChem BioAssay (Broad Institute)
# mut p53 SMM: binds human mutant p53 on microarray; small molecule microarray binding, anti-GST fluorescence; calls only; 17,000 tested, 0.4% active; AID 624136;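 active = compounds whose four printed spots each glow above background more than chance allows, each with a p-value under 7%; compounds were printed on slides so no solution concentration is given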;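 note: about 2 pmol printed per array spot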
# STAT3 SMM: binders of human STAT3; Small molecule microarray, His-STAT3 binding, anti-His fluorescence; calls only; 17,000 tested, 0.2% active; AID 624138;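 active = compounds whose four printed spots each show fluorescence over background unusually high for their array block, chance value under 7%; compounds were printed on slides so no solution concentration is given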;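 note: about 2 pmol printed per array spot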
# ID4 SMM: ID4 (human) binding; 31,000 tested, 1.2% active; calls only; P47928; AID 624137; small molecule microarray, Flag-ID4 binding, fluorescence F/B;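 active = spot signal over background at p below 0.07 in all four prints; compounds were printed on slides so no solution concentration is given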;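 note: a binder raises fluorescence above local background on the spot; about 2 pmol printed per array spot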
# Target sequence (P47928 whole entry, looked up): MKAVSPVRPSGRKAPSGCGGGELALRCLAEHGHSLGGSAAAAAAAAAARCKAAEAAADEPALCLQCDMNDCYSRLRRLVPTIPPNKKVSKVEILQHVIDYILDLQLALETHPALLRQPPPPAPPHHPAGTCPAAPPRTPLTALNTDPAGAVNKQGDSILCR
# c-Myc SMM: c-Myc (human) binding | 17,000 tested, 1.5% active | small molecule microarray, His-c-Myc binding, anti-His fluorescence | calls only;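 active = spot fluorescence over background with P-value below 7% in all four replicate spots, showing protein binding; compounds were printed on slides so no solution concentration is given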;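 note: score is binary with 100 for all four spots passing and 0 otherwise; about 2 pmol printed per array spot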
# Target sequence (P01106 whole entry, looked up): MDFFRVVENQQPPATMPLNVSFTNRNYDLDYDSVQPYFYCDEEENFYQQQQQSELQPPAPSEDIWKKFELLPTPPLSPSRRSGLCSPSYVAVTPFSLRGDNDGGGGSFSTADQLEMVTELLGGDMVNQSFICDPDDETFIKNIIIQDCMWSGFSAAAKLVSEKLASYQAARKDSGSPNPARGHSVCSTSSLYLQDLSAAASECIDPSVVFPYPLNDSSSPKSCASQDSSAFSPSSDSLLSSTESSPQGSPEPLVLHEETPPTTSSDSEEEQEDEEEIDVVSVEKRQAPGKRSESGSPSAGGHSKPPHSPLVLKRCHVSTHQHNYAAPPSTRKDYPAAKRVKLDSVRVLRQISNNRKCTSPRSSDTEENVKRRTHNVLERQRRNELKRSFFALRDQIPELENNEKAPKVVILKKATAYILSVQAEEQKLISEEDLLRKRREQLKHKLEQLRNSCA
# Calls only; i = inactive; . = no result given; + = active, no number. Some of the compounds tested. The share of hits here may be higher or lower than overall.
SMILES,mut p53 SMM,STAT3 SMM,ID4 SMM,c-Myc SMM
C[C@@H]1CCCCO[C@@H](CN(C)Cc2ccccc2)[C@H](C)CN([C@@H](C)CO)C(=O)c2cc(N(C)C)ccc2O1,i,i,i,i
COc1cc(C[C@H]2CO[C@H](c3ccc(O[C@@H]4O[C@H](CO)[C@@H](O)[C@H](O)[C@H]4O)c(OC)c3)[C@H]2CO)ccc1O,i,i,i,i
COc1ccc(C2(CNC(=O)CC#N)CCCC2)cc1OC,i,i,i,i
Cc1noc(C)c1NC(=O)Nc1ccc2c(c1)CC(=O)N([C@H](C)CO)C[C@H](C)[C@H](CN(C)S(=O)(=O)c1cn(C)cn1)O2,i,i,i,i
C[C@@H]1CN([C@@H](C)CO)C(=O)c2cccc(NC(=O)Nc3ccccc3)c2O[C@H]1CN(C)C,i,i,i,i
COc1ccc(C#Cc2cnc3c(c2)C(=O)N([C@H](C)CO)C[C@H](C)[C@H](CN(C)S(=O)(=O)c2cn(C)cn2)O3)cc1OC,i,i,i,i
C[C@H]1CN([C@@H](C)CO)C(=O)c2cccc(NC(=O)C3CCOCC3)c2O[C@@H]1CN(C)Cc1ccc(C(=O)O)cc1,i,i,i,i
C[C@@H]1CN([C@H](C)CO)C(=O)c2cccc(NS(=O)(=O)c3ccc(F)cc3)c2O[C@@H]1CN(C)C(=O)NC1CCCCC1,i,i,i,i
C[C@@H]1CCCCO[C@@H](CN(C)C(=O)Cc2ccccc2)[C@H](C)CN([C@@H](C)CO)C(=O)c2cc(NC(=O)Nc3ccccc3)ccc2O1,i,i,i,i
C[C@H](CO)N1C[C@H](C)[C@H](CN(C)C)Oc2ccc(NC(=O)CCN3CCOCC3)cc2CC1=O,i,i,i,i

# Laid out differently: three of the compounds above.
# Every second line gives: mut p53 SMM	STAT3 SMM	ID4 SMM	c-Myc SMM
- COc1cc(C[C@H]2CO[C@H](c3ccc(O[C@@H]4O[C@H](CO)[C@@H](O)[C@H](O)[C@H]4O)c(OC)c3)[C@H]2CO)ccc1O
    i	i	i	i
- COc1ccc(C2(CNC(=O)CC#N)CCCC2)cc1OC
    i	i	i	i
- Cc1noc(C)c1NC(=O)Nc1ccc2c(c1)CC(=O)N([C@H](C)CO)C[C@H](C)[C@H](CN(C)S(=O)(=O)c1cn(C)cn1)O2
    i	i	i	i

# Later entries
SMILES,mut p53 SMM,STAT3 SMM,ID4 SMM,c-Myc SMM
CCOC(=O)c1c(NC(=O)c2nc3ncccn3n2)sc(C)c1C,i,i,i,i
Cc1cc(O)cc(Oc2cc(C)cc(O)c2O)c1,i,i,.,i
C[C@H]1CN([C@@H](C)CO)C(=O)CCCn2cc(nn2)CO[C@@H]1CN(C)S(=O)(=O)c1ccc(Oc2ccccc2)cc1,i,i,i,i
O=C(Nc1ccccc1C(=O)NCCN1CCOCC1)c1ccco1,i,i,i,i
COc1ccc(Cc2nnc(SCc3nc4ccccc4c(=O)[nH]3)o2)cc1,i,i,i,i
C[C@@H]1CN([C@@H](C)CO)C(=O)c2cccc(NC(=O)NC3CCCCC3)c2O[C@@H]1CN(C)C(=O)Nc1ccc(C(F)(F)F)cc1,i,i,i,+
O=C(Cc1ccccc1)OC(C(=O)NCc1ccccc1)c1ccco1 (stereo not drawn),i,i,i,i
Cc1noc(C)c1S(=O)(=O)N(C)C[C@H]1Oc2c(NC(=O)c3cnccn3)cccc2C(=O)N([C@H](C)CO)C[C@H]1C,i,i,i,+
CC1=C(CCC2=CC(=O)OC2O)[C@@]2(C)CCC[C@]3(C)C(=O)OC(C1=O)[C@@H]32 (stereo partly drawn),i,i,i,i
C[C@@H]1CCCCO[C@@H](CN(C)Cc2ccccc2)[C@@H](C)CN([C@H](C)CO)C(=O)c2cc(NC(=O)CCCN(C)C)ccc2O1,i,i,i,i

# Two entries drawn at random from the list so far:
SMILES,mut p53 SMM,STAT3 SMM,ID4 SMM,c-Myc SMM
CCOC(=O)c1c(NC(=O)c2nc3ncccn3n2)sc(C)c1C,i,i,i,i
Cc1cc(O)cc(Oc2cc(C)cc(O)c2O)c1,i,i,.,i

# Carrying on.
SMILES,mut p53 SMM,STAT3 SMM,ID4 SMM,c-Myc SMM
COC(=O)C1=CO[C@@H](O[C@@H]2O[C@H](CO)[C@@H](O)[C@H](O)[C@H]2O)[C@@H]2[C@@](C)(O)[C@@H](OC(=O)/C=C/c3ccc(OC)c(OC)c3)C[C@]12O,i,i,.,i
NC(=O)C1=C[C@H](c2ccccc2)C[C@H](OCc2ccc(CO)cc2)O1,i,i,.,i
CC(C)NC(=O)N(C)C[C@@H]1OCCCC[C@@H](C)Oc2ccc(NC(=O)Nc3ccc(F)cc3)cc2C(=O)N([C@@H](C)CO)C[C@H]1C,i,i,i,i
CNC[C@@H]1Oc2ccc(NC(=O)Nc3ccc(OC)cc3)cc2C(=O)N([C@H](C)CO)C[C@H]1C,i,i,i,i
CN(C)CC/C=C1\c2ccccc2CSc2ccccc21,i,i,i,i
Cc1noc(C)c1S(=O)(=O)Nc1cccc2c1O[C@@H](CN(C)Cc1ccc3c(c1)OCO3)[C@@H](C)CN([C@@H](C)CO)C2=O,i,i,i,i
Cc1noc(C)c1S(=O)(=O)Nc1cccc2c1O[C@H](CN(C)Cc1ccc(Oc3ccccc3)cc1)[C@H](C)CN([C@@H](C)CO)C2=O,i,i,i,i
C[C@H](CO)N1C[C@H](C)[C@@H](CN(C)C(=O)c2ccccc2)OCCCC[C@H](C)Oc2ccc(NS(C)(=O)=O)cc2C1=O,i,i,+,i
C[C@@H]1CCCCO[C@H](CN(C)C)[C@@H](C)CN([C@H](C)CO)C(=O)c2cc(NC(=O)CCCN(C)C)ccc2O1,i,i,i,i
C[C@H](CO)N1C[C@H](C)[C@H](CN(C)Cc2ccncc2)Oc2ccc(NC(=O)CCN3CCOCC3)cc2CC1=O,i,i,i,i
Cc1cc(C)cc(N2C(=O)CC(SCC(=O)Nc3ccc(Br)cc3)C2=O)c1 (stereo not drawn),i,i,i,i
CNC[C@H]1Oc2c(NC(=O)C3CCOCC3)cccc2C(=O)N([C@@H](C)CO)C[C@H]1C,i,i,i,i
COCCCCC(=NOCCN)c1ccc(C(F)(F)F)cc1,i,i,i,i
CNC[C@@H]1Oc2c(NC(=O)Nc3ccc(C(F)(F)F)cc3)cccc2C(=O)N([C@@H](C)CO)C[C@@H]1C,i,i,i,i
CN(C)c1nc(OCCNC(=O)Nc2ccc(Cl)cc2)nc(N(C)C)n1,i,i,i,i
CO[C@H](CCO)[C@H](O)c1ccc(O)c(F)c1,i,i,i,i
CC1OC(O[C@H]2CC[C@@]3(C)C(CC[C@]4(C)C3CC=C3C5CC(C)(C)CC[C@]5(C(=O)OC5OC(CO)C(OC6OC(CO)C(O)C(O)C6O)C(O)C5O)CC[C@]34C)C2(C)C)C(O)C(O)C1OC1OCC(O)(COC2OCC(O)C(OC3OCC(OC4OCC(O)(CO)C4O)C(O)C3O)C2O)C1O (stereo partly drawn),i,i,i,i
CC(C)NC(=O)N(C)C[C@H]1OCCCC[C@H](C)Oc2ccc(NC(=O)CCCN(C)C)cc2C(=O)N([C@H](C)CO)C[C@@H]1C,i,i,i,i
C[C@@H]1CN([C@H](C)CO)C(=O)c2cc(NC(=O)c3ccccc3)ccc2O[C@@H](C)CCCCO[C@H]1CN(C)S(=O)(=O)c1cn(C)cn1,i,i,i,i
O=c1c(OC2OC(CO)C(O)C(O)C2OC2OC(CO)C(O)C(O)C2O)c(-c2ccc(O)cc2)oc2cc(O)cc(O)c12 (stereo not drawn),i,i,i,i
CC(C)NC(=O)Nc1ccc2c(c1)C(=O)N([C@H](C)CO)C[C@@H](C)[C@@H](CN(C)C(=O)Nc1ccccc1)OCCCC[C@@H](C)O2,i,i,i,i
COc1ccc(CCNC(=O)c2nn3c(C(F)(F)F)cc(-c4ccccc4)nc3c2Cl)cc1OC,i,i,i,i
COc1ccc(NC(=O)Nc2ccc3c(c2)C(=O)N([C@H](C)CO)C[C@@H](C)[C@@H](CN(C)S(=O)(=O)c2cccs2)O3)cc1,i,i,i,i
O=C(C1=C[C@H](C2CC2)C[C@H](OCc2ccc(CO)cc2)O1)N1CCN(Cc2ccccc2)CC1,i,i,i,i
Cc1noc(C)c1S(=O)(=O)Nc1ccc2c(c1)C(=O)N([C@@H](C)CO)C[C@H](C)[C@H](CN(C)C(=O)CCC(F)(F)F)OCCCC[C@H](C)O2,i,i,i,i
C[C@H](CO)N1C[C@H](C)[C@@H](CN(C)Cc2ccncc2)Oc2ccc(NC(=O)Nc3ccc(F)cc3)cc2C1=O,i,i,i,i
CNC[C@H]1Oc2ccc(NC(=O)Nc3ccc4c(c3)OCO4)cc2C(=O)N([C@H](C)CO)C[C@@H]1C,i,i,i,i
C=CCn1c2ccccc2c2nnc(SCc3ccc([N+](=O)[O-])cc3)nc21,i,i,i,i
Cc1ccc(S(=O)(=O)Nc2ccc3c(c2)C(=O)N([C@@H](C)CO)C[C@H](C)[C@@H](CN(C)S(=O)(=O)c2ccc(C)cc2)O3)cc1,i,i,.,i
COc1ccc(CN(C)C[C@@H]2Oc3c(NS(=O)(=O)c4cccs4)cccc3C(=O)N([C@@H](C)CO)C[C@@H]2C)cc1,i,i,i,i
O=C(O)CCc1nc2c3c4c(sc3ncn2n1)CCCC4,i,i,i,i
COCCCN1C(=O)c2oc3ccc(Br)cc3c(=O)c2C1c1cccc([N+](=O)[O-])c1 (stereo not drawn),i,i,i,i
C[C@@H]1CN([C@@H](C)CO)C(=O)c2cc(NC(=O)C3CCCCC3)ccc2O[C@@H](C)CCCCO[C@H]1CN(C)Cc1ccc(C(=O)O)cc1,i,i,i,i
O=C(NCC(O)c1ccccc1)c1ccc(S(=O)(=O)N2CCOCC2)cc1 (stereo not drawn),i,i,i,i
C[C@H]1CN([C@@H](C)CO)C(=O)c2cccc(NC(=O)C3CCOCC3)c2O[C@H]1CN(C)S(=O)(=O)c1cccs1,i,i,i,i
C[C@H]1CN([C@@H](C)CO)C(=O)c2cccc(NS(=O)(=O)c3cccs3)c2O[C@H]1CN(C)Cc1ccc(Cl)c(Cl)c1,i,i,i,i
COc1ccc(C2Oc3cc(OC)ccc3CC2O)cc1 (stereo not drawn),i,i,i,i
COc1ccccc1C1=NN(C(=O)CCC(=O)O)C(c2ccco2)C1 (stereo not drawn),i,i,i,i
COc1ccc(NC(=O)Nc2cccc3c2O[C@@H](CN(C)Cc2ccncc2)[C@H](C)CN([C@@H](C)CO)C3=O)cc1,i,i,i,i
CC(C)NC(=O)Nc1ccc2c(c1)C(=O)N([C@H](C)CO)C[C@@H](C)[C@@H](CN(C)S(=O)(=O)c1ccccc1)OCCCC[C@@H](C)O2,i,i,i,i
C=CC[C@@]1(C(=O)OC)N=C(c2ccc(OCCCO)cc2)O[C@@H]1c1ccccc1CN=[N+]=[N-],i,i,i,i
C[C@H]1CN([C@@H](C)CO)C(=O)c2cc(NC(=O)CCN3CCOCC3)ccc2O[C@@H]1CN(C)C(=O)Nc1ccccc1,i,i,i,i
C/C=C/C/C=C/CCC(=O)[C@H]1O[C@H]1C(N)=O,i,i,i,i
C[C@H]1CN([C@@H](C)CO)C(=O)CCCn2cc(nn2)CO[C@H]1CN(C)C(=O)Nc1ccccc1C(F)(F)F,i,i,i,i
O=C(O)C1=C[C@@H](c2ccc(Br)cc2)C[C@@H](OCCCCO)O1,i,i,.,i
COC(=O)[C@]1(Cc2ccccc2N=[N+]=[N-])N=C(c2ccc(OCCCO)cc2)O[C@@H]1c1ccccc1N=[N+]=[N-],i,i,.,i
C[C@@H]1CN([C@@H](C)CO)C(=O)c2cccc(NS(C)(=O)=O)c2O[C@@H]1CN(C)S(=O)(=O)c1ccc(Cl)cc1,i,i,i,i
COCCOC(=O)N1C(=O)[C@@]2(c3cc(C#CCNC(N)=O)ccc31)[C@H](C(=O)NC[C@H](O)c1ccccc1)[C@H]1C(=O)O[C@H](c3ccccc3)[C@H](c3ccccc3)N1[C@@H]2c1ccc(O)cc1,i,i,i,i
C[C@H](CO)N1C[C@H](C)[C@@H](CN(C)Cc2ccccc2)Oc2c(cccc2N(C)C)C1=O,i,i,i,i
C[C@H]1CN([C@@H](C)CO)C(=O)c2cccc(NC(=O)Nc3ccc(F)cc3)c2O[C@@H]1CN(C)Cc1ccc(C(=O)O)cc1,i,i,i,i

# Other compounds follow:
SMILES,mut p53 SMM,STAT3 SMM,ID4 SMM,c-Myc SMM
COc1ccc(/C=C/C(=O)O[C@@H]2[C@@H](O)[C@@H](O)[C@H](O[C@H]3[C@@H]4C=CO[C@@H](O[C@@H]5O[C@H](CO)[C@@H](O)[C@H](O)[C@H]5O)[C@@H]4[C@@]4(CO)O[C@@H]34)O[C@H]2C)cc1,i,i,.,i
CNC[C@@H]1Oc2ccc(NC(=O)CCC(F)(F)F)cc2CC(=O)N([C@@H](C)CO)C[C@@H]1C,i,i,i,i
C[C@@H]1CN([C@@H](C)CO)C(=O)c2cccc(NC(=O)c3cnccn3)c2O[C@H]1CN(C)Cc1ccc(C(F)(F)F)cc1,i,i,i,i
C[C@@H]1CN([C@H](C)CO)C(=O)Cc2cc(NC(=O)CCC(F)(F)F)ccc2O[C@H]1CN(C)Cc1ccc2c(c1)OCO2,i,i,i,i
Cc1noc(C)c1S(=O)(=O)Nc1cccc2c1O[C@H](CN(C)Cc1ccncc1)[C@H](C)CN([C@H](C)CO)C2=O,i,i,i,i
